# Methyltransferases – Primary Screen for Target Class Profiling of Small Molecule Inhibitors of Methyltransferases | calls only at 40 µM | 25,000 compounds, 3.9% hits | purified enzyme, MTase-Glo SAH luminescence; stronger effect = lower value | AID 1745853, 2022; active = -50% or lower on at least one of six enzymes; inconclusive = the cases between; inactive = as a rule above -30% on all six;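 note: enzymes were COMT GAMT GNMT HNMT NNMT and PNMT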
#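 Each enzyme was assayed with SAM and its substrate. SAH formation detected by MTase-Glo luminescence; single-point 40 uM screen[…].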
# Calls only; i = inactive; u = inconclusive; + = active, no number. % is set by controls: 0 for no effect and ±100 for the full control effect. An excerpt (hit frequency here may not be typical).
mol | Methyltransferases
Cc1ccc([C@H]2Nc3ccc(S(=O)(=O)Nc4cccc(Cl)c4C)cc3[C@H]3C=CC[C@H]32)cc1 | i
COc1cccc([C@H]2Nc3ccc(S(=O)(=O)Nc4ccc(C)c(C)c4)cc3[C@H]3C=CC[C@H]32)c1OC | i
COc1ccc(Cn2c(=O)c3ccccc3n3c(-c4ccc(Cl)cc4)nnc23)cc1 | i
CC(C)CCNC(=O)C1(C)Cn2nc(C(=O)NCc3cccnc3)cc2C(=O)N1C (configuration not stated) | i
COc1ccc2cc3n(c2c1)CC(C)(C(=O)NC1CCCCC1)N(Cc1ccc(Cl)cc1)C3=O (configuration not stated) | i
COc1ccc2c(c1)CCc1c-2n[nH]c1C(=O)Nc1ccc2c(c1)C(=O)N(C)C1=NCCN12 | i
O=S(=O)(N[C@H]1CO[C@H]2[C@@H]1OC[C@@H]2n1nnnc1Oc1cccc(N2CCOCC2)c1)c1cccs1 | i
CCCN1C(=O)c2c(C(=O)NCc3ccc(N(C)C)cc3)ncn2CC1(C)C(=O)NCc1ccc(C)cc1 (configuration not stated) | i
COc1cc(C(CO)CO[C@@H]2O[C@H](CO)[C@@H](O)[C@H](O)[C@H]2O)ccc1O (some centres not stated) | i
CCc1cc2c(cc3n2CC(C)(C(=O)NC2CCCCCC2)N(c2cccc(F)c2)C3=O)s1 (configuration not stated) | i
CC(C)CNC(=O)c1ccc2c(=O)n(C(C)C)c3nn(CC(=O)c4ccccc4)c(=O)n3c2c1 | i
Cc1cc(O)c(C(C)C)cc1O[C@@H]1O[C@H](CO)[C@@H](O)[C@H](O)[C@H]1O | i
CCC(C)NC(=O)c1ccc2c(=O)n(CC(C)C)c3nn(Cc4c(F)cccc4Cl)c(=O)n3c2c1 (configuration not stated) | i
CC(C)Cn1c(=O)c2ccc(C(=O)NC(C)C)cc2n2c(=O)n(CC(N)=O)nc12 | i
CCCn1c(=O)c2ccccc2n2c(=O)n(Cc3ccc(F)cc3Cl)nc12 | i
COc1ccccc1CNc1nc2c(S(=O)(=O)c3ccc(Br)cc3)nnn2c2ccccc12 | i
O=C(O)CCC(=O)N1CC[C@@H]2[C@H]1C(=O)N(c1ccc(F)c(Cl)c1)C(=O)N2Cc1ccccc1 | i
CCOc1ccccc1CNC(=O)c1cc2n(n1)CC(C)(C(=O)NC1CCCC1)N(C)C2=O (configuration not stated) | i
C=C1C(=O)OC2C=C(C)CC/C=C(\CO)CC(O)C12 (configuration not stated) | u
Cc1ccc(S(=O)(=O)N2CCC[C@H]2c2ccc(F)cc2)cc1 | u
CCOc1ccc(CCNC(=O)c2cc3n(n2)CC(C)(C(=O)NC2CCCC2)N(C)C3=O)cc1 (configuration not stated) | i
Cc1cc(C)cc(N2C(=O)CSc3c(c4ccccc4n3C)C2C(=O)NCc2ccc(F)cc2)c1 (configuration not stated) | i
FC(F)(F)c1ccc(CN2CCC3(CC(c4cccc(C(F)(F)F)c4)=NO3)C2)cc1 (configuration not stated) | i
Cc1cc2c(N3CCCC3)nc(N3CCCC3)nc2n1C | +
CCCn1c(=O)c2ccc(C(=O)NC(C)C)cc2n2c(=O)n(CC(=O)NCc3ccccc3)nc12 | i
COc1cccc(CN2C(=O)c3cc4c(OC)ccc(OC)c4n3CC2(C)C(=O)NC2CCCC2)c1 (configuration not stated) | i
CC(C)NC(=O)N1Cc2c(sc3c2CCCC3)-n2cccc2C1c1ccc(Cl)cc1 (configuration not stated) | i
CC1(C)S[C@@H]2[C@H](NC(=O)[C@H](NC(=O)N3CCN(S(C)(=O)=O)C3=O)c3ccccc3)C(=O)N2[C@H]1C(=O)O | i
CCN1CCN(C(=O)c2cc3n(n2)CC(C)(C(=O)NCc2ccc(F)cc2)N(C)C3=O)CC1 (configuration not stated) | i
CCCCNc1nc2c(-c3ccc(OC)cc3)nnn2c2ccccc12 | i
CS(=O)(=O)N1CCC(OC2CCN(C(=O)Nc3ccccc3C(F)(F)F)CC2)CC1 | i
COc1ccc(C(=O)N2CCC[C@H]2c2nc(-c3ccccc3)no2)cc1 | i
CCOC(=O)c1cc2n(n1)CC(C)(C(=O)NCc1ccccc1OC)N(Cc1ccccc1F)C2=O (configuration not stated) | i
CC(C)CCNC(=O)C1c2c(n(C)c3ccccc23)SCC(=O)N1c1ccc(F)cc1F (configuration not stated) | i
CCCn1c(=O)c2ccc(C(=O)NC3CCCC3)cc2n2c(=O)n(CC(=O)Nc3cccc(C)c3)nc12 | i
Cc1cnc(C(=O)N2CC[C@H](CO)[C@H](NC(=O)C3CC3)C2)cn1 | i
CCc1cc2c(cc3n2CC(C)(C(=O)NC2CCC(C)CC2)N(Cc2ccccc2F)C3=O)s1 (configuration not stated) | i
C/C1=C\[C@@H](C)C[C@@H](C)[C@@H](Cc2cnco2)OC(=O)/C(C)=C/[C@@H](C)C[C@@H](C)[C@@H](Cc2cnco2)OC1=O | i
COc1cc(C)c(-c2nc(CN3CCCC(CN)C3)c(C)o2)cc1C (configuration not stated) | i
COCCn1c(=O)n([C@H]2CCCN(C(=O)NCCc3ccccc3)C2)c2ncccc21 | i
CCCC1c2cccn2CCN1C(=O)NCc1ccc(C)cc1 (configuration not stated) | i
Cc1cc(C)cc(N2C(=O)CSc3c(c4ccccc4n3C)C2C(=O)NCCC(C)C)c1 (configuration not stated) | i
COC(=O)c1ncn2c1C(=O)N(Cc1ccco1)C(C)(C(=O)NC1CCCC1)C2 (configuration not stated) | i
CCN1CCN(CCCNC(=O)c2cc3n(n2)CC(C)(C(=O)NCc2ccc(F)cc2)N(C)C3=O)CC1 (configuration not stated) | i
O=C(CCc1nnc2n(CCc3ccccc3)c(=O)c3ccccc3n12)Nc1cccc(Cl)c1 | i
COCc1nc(CCNC(=O)NCCc2ccccc2)no1 | i
CCn1nc(CNC(=O)Cc2cccc(F)c2)c2ccccc21 | i
COc1c(C)cc(NC(=O)c2nn(Cc3ccc(F)cc3)c3c2CN(C(=O)c2ccc[nH]2)C[C@]3(C)C(N)=O)cc1C | i
CC1(C)[C@@H](O)CC[C@]2(C)[C@H]3CC=C4[C@@H]5C[C@](C)(C(=O)O)CC[C@]5(C)CC[C@@]4(C)[C@]3(C)CC[C@@H]12 | +
CCOC(=O)c1cc2n(n1)CC(C)(C(=O)NC1CCCCCC1)N(c1cccc(Cl)c1)C2=O (configuration not stated) | i
CCOC(=O)c1cc2n(n1)CC(C)(C(=O)NC1CCCCCC1)N(Cc1ccccc1C)C2=O (configuration not stated) | i
CN1C(=O)c2cc(C(=O)NCCCN3CCCCC3)nn2CC1(C)C(=O)NCc1ccc(F)cc1 (configuration not stated) | i
CCCNC(=O)N(C1CCOCC1)C1CCN(C(=O)c2nn(C)c3ccccc23)CC1 | i
CC(C)N1CCN(C(=O)c2cc3cn(C4CC4)cc3s2)CC1 | i
COc1ccccc1-c1[nH]nc2ncc(C(=O)N3C[C@@H](C)O[C@@H](C)C3)nc12 | u
O=C(CCc1nnc2n(Cc3ccccc3)c(=O)c3ccccc3n12)N1CCN(c2cccc(Cl)c2)CC1 | i
COC1CCC(C(=O)N2CCC3(CC2)OC(=O)N(CCOc2ccccc2)C3(C)c2cccnc2)CC1 (configuration not stated) | i
COc1cccc(CN2C(=O)c3nc4ccccc4n3CC2(C)C(=O)NC2CCCC(C)C2C)c1 (configuration not stated) | i
O[C@H]1CC[C@@H](Cc2cc(-c3ccccn3)on2)O[C@@H]1CN(Cc1ccccc1)Cc1ccccc1 | i
COc1ccc(-c2cc(-c3ccncc3)cn3cncc23)cc1 | u

# Next section:
mol | Methyltransferases
O=C(Nc1cccc([N+](=O)[O-])c1)c1cccc(S(=O)(=O)N2CCCCCC2)c1 | i
CC(C)NC(=O)c1ccc2c(=O)n(C(C)C)c3nn(CC(=O)Nc4cccc(Cl)c4)c(=O)n3c2c1 | i
COC(=O)C1=CN(CC(=O)N2CCN(c3ccc(F)cc3)CC2)S(=O)(=O)N=C1C | i
Cc1cccc(NC(=O)Cn2c(=O)oc3cc(S(=O)(=O)NC4CCCC4)ccc32)c1 | i
C/C=C(\C)C(=O)OC[C@H]1O[C@@H](O[C@H]2[C@@H](O[C@H]3O[C@H](COC(=O)/C(C)=C/C)[C@@H](O)[C@H](O)[C@H]3O[C@@H]3O[C@H](CO)[C@@H](O)[C@H](OC(=O)/C(C)=C/C)[C@H]3O)O[C@H](COC(=O)/C(C)=C/C)[C@@H](O)[C@@H]2O)[C@H](O)[C@@H](O)[C@@H]1O | i
O=C(Nc1ccc([C@@H](O)[C@H]2COCC(=O)N2Cc2ccccc2F)cc1)c1ccc2c(c1)OCO2 | i
O=C(Nc1ccccc1)NC1CCN(CCn2nc3n(c2=O)CCCC3)C1 (configuration not stated) | i
CC1CCC(NC(=O)C2(C)Cn3c(ccc3-c3ccco3)C(=O)N2C2CCCCC2)CC1 (configuration not stated) | i
CC(C)c1noc(-c2ccn3c(CNC(=O)c4ccoc4)nnc3c2)n1 | i
Cc1ccc(NC(=O)[C@@H]2CNC[C@H](C(=O)NCc3ccccn3)C2)cn1 | i
O=C(CCc1nnc2n(CCc3ccccc3)c(=O)c3ccccc3n12)NC1CCN(Cc2ccccc2)CC1 | i
Cc1nc2c(c(NC3CC3)n1)CCN(C(=O)CCc1cccnc1)CC2 | i
Cn1nccc1C(O)c1cc2n(n1)CCN(CC(=O)NCc1ccco1)C2 (configuration not stated) | i
COc1cccc(Cn2nc3n(Cc4ccc(C)cc4)c(=O)c4ccccc4n3c2=O)c1 | i
Cc1ccc(CSc2nnc3n(C)c(=O)c4ccc(C(=O)NC5CCCCC5)cc4n23)cc1 | i
C=C(CCO)C(=O)OCC1OCC(OC(=O)C(=C)CCO[C@@H]2O[C@H](COC(=O)C(=C)CCO[C@@H]3O[C@H](CO)[C@@H](O)[C@H](O)[C@H]3O)[C@@H](O)[C@H](O)[C@H]2O)C(O)C1O (some centres not stated) | i
COc1ccc(NC(=O)Cn2nc3n(CCCOC(C)C)c(=O)c4ccccc4n3c2=O)cc1 | i
CCCN1C(=O)c2c(C(=O)Nc3cc(C)ccc3C)ncn2CC1(C)C(=O)NCc1ccc(OC)cc1 (configuration not stated) | i
Cc1ccc(CN2CCN(Cc3ccc(=O)n(C)c3)CC2)cc1 | i
COc1ccc(CN2C(=O)O[C@@H]3CN(c4nc(C)cc(C)n4)C[C@@H]32)cc1OC | i
O=C1CN(Cc2ccc(-c3ccsc3)cc2)CCN1c1cc(Cl)ncn1 | i
CCCn1c(=O)c2ccc(C(=O)NC3CCCCC3)cc2n2c(=O)n(Cc3ccccc3)nc12 | i
Cc1cc(CN(C)c2ccc(-c3nc(-c4ccccc4F)no3)cn2)on1 | i
CC1(C(=O)NC2CCCC2)Cn2cnc(C(=O)NCc3ccccc3F)c2C(=O)N1C1CC1 (configuration not stated) | i
COc1ccccc1-c1cnc2n[nH]c(-c3ccc4c(c3)OCO4)c2n1 | u
Cc1ccc(Cn2c(=O)c3ccccc3n3c(CCC(=O)Nc4ccc(C)c(C)c4)nnc23)cc1 | i
C/C(=N\N=C(N)N)c1cc(NC(=O)CCCCCCCCC(=O)Nc2cc(/C(C)=N/N=C(N)N)cc(/C(C)=N/N=C(N)N)c2)cc(/C(C)=N/N=C(N)N)c1 | +
Cc1cc2[nH]c(=O)[nH]c2cc1S(=O)(=O)Nc1ccc(F)cc1 | i
Cc1ccc2c(c1)c1c3n2CCN(CCC(=O)O)C3CCC1 (configuration not stated) | i
CCOC(=O)c1cc2n(n1)CC(C)(C(=O)NCc1ccccc1)N(Cc1ccccc1)C2=O (configuration not stated) | i
COc1ccc(OC)c2c1cc1n2CC(C)(C(=O)NC2CCCC2)N(Cc2cccnc2)C1=O (configuration not stated) | i
O=C(NC1CC1)[C@@H]1C[C@H](Oc2cccnc2)CN1C(=O)c1ccccn1 | i
Cn1ccnc1C(O)c1cc2n(n1)CCN(S(=O)(=O)C1CC1)C2 (configuration not stated) | i
CCC1(C)CC(CC(=O)O)(c2ccc(OC)cc2)CCO1 (configuration not stated) | i
O=C(c1ccccc1)N1CC2(CCNC2)OCc2ccccc21 (configuration not stated) | i
Cc1cc(C)cc(NC(=O)Cn2nc3n(CCC(C)C)c(=O)c4ccccc4n3c2=O)c1 | i
CC(C)CCN1C(=O)c2cc(-c3ccco3)nn2CC1(C)C(=O)NC1CCCCCC1 (configuration not stated) | i
Cc1ccc(Cn2c(=O)c3ccc(C(=O)NC(C)C)cc3n3c(=O)n(CC(=O)NC4CCCC4)nc23)cc1 | i
CN[C@@H](C)C(=O)N[C@H](C(=O)N1CCC[C@H]1c1nc(C(=O)c2ccc(F)cc2)cs1)C1CCCCC1 | u
CCn1nnnc1NCc1ccc(C(C)C)cc1 | i
O=C(NC1CCCC1)C1c2cccn2CC(=O)N1c1cccc(Cl)c1 (configuration not stated) | i
Cc1cn2nc(C(=O)NCC(C)c3ccccc3)cc2c(N2CCSCC2)n1 (configuration not stated) | i
CC(C)CCn1c(=O)c2ccccc2n2c(SCC(=O)Nc3ccc(C(C)C)cc3)nnc12 | i
CC1CC2OC3(OC2C(C)(C)O)C1C1(C)CCC24CC25CCC(O[C@@H]2OC[C@@H](O)[C@H](O)[C@H]2O)C(C)(C)C5CC=C4C1(C)C3O (some centres not stated) | i
